Assay outcomes as filed in PubChem BioAssay.
Mtb hypoxia rep = Mtb hypoxia fluorescent reporter inhibition; AID 1159583; M. tuberculosis hypoxia-regulated fluorescent reporter, fluorescence; 0.1% of 300,000 active; fluorescence inhibition, % (no concentration beside the values);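 active means 35 to 45% if threefold the growth effect, above 45% if 1.5-fold the growth effect; inactive means the rest, general growth blockers included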;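 further: wells of about 50 µL received 100 nL stock; 0% = vehicle wells and 100% = reference inhibitor wells; whole bacteria with a GFP reporter of the hypoxia response; strong numbers were not always called active; many hits fall short of the cut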
PrP 5UTR inh = suppresses PrP 5' UTR mRNA reporter expression. cell-based PrP 5' UTR mRNA reporter, plate reader. inhibition, % (concentration not given with the values). 0.35% of 340,000 active. AID 488862;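 active means every replicate at 50% or more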;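 further: 0 = median of the neutral control wells; tested in H4 reporter cells; numbers are from one replicate; inactives centre near -14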
Sa ugtP lethal = kills S. aureus RN4220 lacking UgtP | AID 1259309 | S. aureus RN4220 ugtP deletion, OD600 growth, 16 h; some inactives read as strong as hits | growth inhibition, % (no concentration beside the values) | 0.54% of 330,000 active;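 active means z-score under -3 and OD600 up to 0.15 on both plates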;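 further: plate controls were untreated wells for no effect and antibiotic for full effect; wells of about 80 µL received 100 nL stock; the first replicate is given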
BJeLR lethal = kills HRASV12-expressing BJeLR cells; BJeLR (HRASV12) viability, CellTiter-Glo ATP luminescence, 48 h; reference of the scale not given here; inhibition, % (concentration not given with the values); 0.17% of 300,000 active;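 active means replicate mean above 50%; inconclusive means above 50% but judged a plate artefact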;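 further: 50 nL library stock added to about 25 µL; numbers are from one replicate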
Bead autofluor = counter-screen for toxin protease inhibitors: compound fluorescence. compound autofluorescence counterscreen, microsphere flow cytometry; active compounds read high. fluorescence intensity (no concentration beside the values). 3.1% of 360,000 active. AID 624483;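 active means at least 3 SD above the mean of all compounds, about 16000 in these data; inconclusive means too few beads counted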;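 further: 100 nL of 1 mM stock went into each well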
Sa RN4220 lethal = kills Staphylococcus aureus RN4220 | S. aureus RN4220 growth, OD600, 16 h | inhibition, % (test concentration not listed) | 0.33% of 330,000 active;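 active means z-score of -3 or lower and OD600 up to 0.18 on both plates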;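 further: plate controls were untreated cells for no effect and reference antibiotic for full effect; stock transfer was 100 nL into about 80 µL; one replicate is shown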
Mtb hypoxia rep growth = recorded beside Mtb hypoxia rep, whose call it bears; growth inhibition, %; measured here: M. tuberculosis growth (absorbance);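 0% = vehicle and 100% = reference antibiotic; read after six days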
An asterisk follows results filed as active; ? = inconclusive; nt = no result given.

SMILES	Mtb hypoxia rep	Mtb hypoxia rep growth	PrP 5UTR inh	Sa ugtP lethal	BJeLR lethal	Bead autofluor	Sa RN4220 lethal
CC(Oc1ccc(Cl)cc1)c1ccn[nH]1 (configuration not stated)	3	1	-16	0	-1	3442	6.7
COc1ccc(C(=O)Nn2c(SCC(=O)c3ccc(Cl)cc3)nc3ccccc3c2=O)cc1	6	8	-7	-17	-1	20288*	4.6
O=Cc1ccc(C(=O)OCC(=O)N2CCCC2)cc1	2	2	-16	5	-13	5432	3.4
Cc1cc([N+](=O)[O-])ccc1NC(=O)CSc1nccc(=O)[nH]1	17	2	-30	0	2	4554	3.8
Cc1cc(SCc2cccc(Cl)c2)nc(=O)[nH]1	4	-5	0	0	-3	6053	5.6
O=C(c1ccccc1NS(=O)(=O)c1ccc2c(c1)OCCO2)N1CCOCC1	12	7	-29	1	8	10075	5.7
O=C(Nc1cccc(F)c1)c1ccc(Br)o1	7	11	-23	7	3	3936	5.3
O=C(NN=Cc1cc(Cl)cc([N+](=O)[O-])c1O)C1CC1	7	3	nt	3	nt	nt	7.9
Cc1ccc(C(=O)OC(C)C(=O)N(C)C2CCCCC2)cc1S(=O)(=O)N1CCCCC1 (configuration not stated)	9	0	-5	-6	nt	3645	0.6
CCCCCCCCS(=O)c1sc2nc3c(cc2c1N)CCCC3 (configuration not stated)	3	3	-4	-10	6	6726	2.7
CC(C)(C)C1CCC(=NNC(=O)c2ccc(Br)o2)CC1 (configuration not stated)	-2	-7	-23	4	-6	2314	3.0
CCn1c(CC(=O)Nc2ccccc2F)nnc1SCC(=O)Nc1nncs1	2	-5	-9	0	-5	6946	3.2
COc1cccc(C(=O)CSc2nnc(CNc3nc(-c4ccccc4)cs3)n2C)c1	nt	nt	-24	-15	-1	3271	-4.0
CCc1nn(CC(=O)NC(C)CCc2ccccc2)c(=O)c2cc3cc(F)ccc3n12 (configuration not stated)	-3	-1	-2	-6	3	5691	0.8
Cc1[nH]c2ccccc2c1C(=O)C(=O)N1c2ccccc2CC1C (configuration not stated)	10	4	-8	-10	6	5510	1.3
CCCCN(CCCC)S(=O)(=O)c1ccc(NC(=O)c2cccs2)cc1	2	1	nt	-39	-7	11555	-0.6
CCOc1ccc2nc(NCCNC(=O)C(C)C)c(C)cc2c1	nt	nt	-11	6	-8	3526	-1.4
Cn1c(SCC(=O)c2ccc(F)cc2)nnc1-c1cccnc1	8	2	-8	12	-2	2518	2.6
CC(=O)N1N=C(c2ccncc2)OC12CCCCCC2	13	8	-20	10	7	9495	4.9
Cn1nccc1C(=O)Nc1ccc(Cl)cc1	5	13	-28	1	-9	9493	2.8

7 structures already listed, ordered by heavy-atom count, high to low:
SMILES	Mtb hypoxia rep	Mtb hypoxia rep growth	PrP 5UTR inh	Sa ugtP lethal	BJeLR lethal	Bead autofluor	Sa RN4220 lethal
COc1cccc(C(=O)CSc2nnc(CNc3nc(-c4ccccc4)cs3)n2C)c1	nt	nt	-24	-15	-1	3271	-4.0
CCn1c(CC(=O)Nc2ccccc2F)nnc1SCC(=O)Nc1nncs1	2	-5	-9	0	-5	6946	3.2
CCCCN(CCCC)S(=O)(=O)c1ccc(NC(=O)c2cccs2)cc1	2	1	nt	-39	-7	11555	-0.6
CCOc1ccc2nc(NCCNC(=O)C(C)C)c(C)cc2c1	nt	nt	-11	6	-8	3526	-1.4
Cc1cc([N+](=O)[O-])ccc1NC(=O)CSc1nccc(=O)[nH]1	17	2	-30	0	2	4554	3.8
O=C(NN=Cc1cc(Cl)cc([N+](=O)[O-])c1O)C1CC1	7	3	nt	3	nt	nt	7.9
Cc1cc(SCc2cccc(Cl)c2)nc(=O)[nH]1	4	-5	0	0	-3	6053	5.6

Later entries
SMILES	Mtb hypoxia rep	Mtb hypoxia rep growth	PrP 5UTR inh	Sa ugtP lethal	BJeLR lethal	Bead autofluor	Sa RN4220 lethal
O=C(O)CCc1nn2c3ccccc3n(Cc3ccccc3F)c2nc1=O	-5	5	-23	5	5	2631	4.8
CC(Oc1ccc(F)cc1F)C(=O)/C=C/N(C)C (configuration not stated)	5	7	-12	7	-1	24183*	4.1
O=C(c1cc2cc([N+](=O)[O-])ccc2oc1=O)N1CCN(c2ncccn2)CC1	2	7	nt	0	-4	7793	1.0
O=c1[nH]c(=O)n(Cc2ccc(F)cc2)c(O)c1C=NCCCN1CCOCC1	2	11	-10	0	3	10342	2.3
CC1CCN(S(=O)(=O)c2cccc(C(=O)N(C)C3(C)CCS(=O)(=O)C3)c2)CC1 (configuration not stated)	-2	-3	-26	6	-4	5041	3.6
CNC(=O)c1cc2c(s1)-c1ccccc1CC2	1	1	-35	-3	0	4647	7.4
CN1CCC(OC(c2ccccc2)c2ccccc2)CC1	2	-9	3	-5	5	5744	0.1
CCOC(=O)c1[nH]c2ccc(OCC)cc2c1NC(=O)CN1CCN(c2ccccn2)CC1	nt	nt	-6	-3	-1	3779	2.6
Cc1noc(C)c1S(=O)(=O)N1CCN(c2ccccc2)CC1	0	5	-6	6	-9	6637	6.8
O=C(Cn1cnc2ccccc2c1=O)Nc1cccc(S(=O)(=O)N2CCCCC2)c1	4	-3	0	8	0	3468	2.3
Cc1cccc(C)c1Nc1c(-c2ccccc2O)nc2ncccn12	-8	5	-3	0	-18	3940	-0.3
CCCCCCn1nc(C(=O)OCC(=O)NC2CCS(=O)(=O)C2)c2ccccc2c1=O (configuration not stated)	5	4	-10	-61	-1	4026	18
O=S(=O)(c1ccccc1)N1N=C(c2ccc(Cl)cc2)CC1c1ccco1 (configuration not stated)	-11	-9	1	0	nt	nt	5.7
COc1ccc(-c2cc(C(F)(F)F)n3ncc(C(=O)O)c3n2)cc1OC	5	1	-15	1	1	2764	-7.1
COc1ccc(OCCC(=O)N2CCCCC2)cc1	nt	nt	-20	1	-11	4287	1.1
Cc1cc(-n2nc(C)cc2C)n2nc(C)c(-c3ccc(Cl)cc3)c2n1	-1	2	1	-6	2	17908*	-1.1
CCOc1ccc(CNC(=O)c2ccc(Sc3ccc(Cl)cc3)c(NC(C)=O)c2)cc1OC	3	-1	-31	7	-1	2460	-6.9
COc1ccccc1OCCNC(=O)C1CC(=O)N(c2ccc3c(c2)OCCO3)C1 (configuration not stated)	-3	-3	-6	1	-15	5230	3.7
COC(=O)c1cc(NC(=O)c2nn(C)c(=O)c3ccccc23)cc(C(=O)OC)c1	1	0	-25	3	-2	3606	8.3
COc1ccc(NC(=O)N(C)CC2Oc3c(NC(=O)Cc4ccccc4)cccc3C(=O)N(C(C)CO)CC2C)cc1 (configuration not stated)	1	8	nt	7	nt	nt	2.9
OCCNc1nc(-c2ccccc2)c2cc(Cl)ccc2n1	0	3	0	5	-3	3998	6.4
Cc1ccc2c(c1)CN1CN2Cc2cc(C)ccc21	2	5	1	-5	-11	4153	-1.3
O=C(NC1CCN(Cc2ccccc2)CC1)c1c(Cl)cccc1Cl	0	-7	7	3	-1	3430	0.4
CCOc1ccc(C2=CSC3=NCCN23)cc1Cl	4	16	-8	5	-5	4436	6.0
C/C(=C/C(=O)Nc1cccc(F)c1)N1CCCC1	-1	-1	-12	-5	-5	2565	-1.5
COc1ccccc1N1CCN(S(=O)(=O)c2cnc[nH]2)CC1	-4	6	-40	4	11	6593	2.5
O=[N+]([O-])c1ccc(S(=O)(=O)CC(CN2CCOCC2)N2CCOCC2)cc1 (configuration not stated)	10	11	-19	2	22	3093	16
O=C(CCc1ccc(S(=O)(=O)N2CCOCC2)cc1)NN=Cc1cccc(O)c1	-2	-2	nt	-7	nt	nt	2.5
CCc1noc(C)c1C(=O)Nc1ncc(C)s1	5	11	1	0	1	9886	1.4
COc1ccc(CNC(=O)CCc2c(C)nc3ncnn3c2C)cc1	1	1	-7	4	2	nt	3.3
CN1CCN(C(=O)c2cnn(-c3ccccc3)c2NC(=O)c2ccccc2F)CC1	nt	nt	-27	-1	-2	4880	3.9
COc1ccc(-c2[nH]c(-c3ccc(SC)cc3)nc2SCC(=O)Nc2nccs2)cc1	nt	nt	-32	nt	4	2133	nt
Nc1nnc(SCC(=O)c2ccco2)s1	1	2	-22	-3	1	5427	-1.0
Cc1cc(NC(=O)C(C)SCC(=O)Nc2nnc(CC(C)C)s2)no1 (configuration not stated)	nt	nt	13	nt	-20	?	nt
O=C(/C=C/c1ccccc1)Nc1cccnc1Oc1ccccc1F	14	4	-35	5	-4	6215	1.0
Cc1cccc(C)c1NC(=S)NNc1ncc(C(F)(F)F)cc1Cl	nt	nt	-19	6	2	2903	2.4
Cc1cc(C)c(S(=O)(=O)N2CCCCCC2)cc1Br	13	6	-70	2	12	4189	7.5
CCCc1cc(=O)[nH]c(/N=C(\N)Nc2ccccc2)n1	nt	nt	-19	nt	0	9496	nt
Cc1ccc(CN2CCSc3ccc(C(=O)N4CCOCC4)cc32)cc1	0	6	1	1	9	4617	6.0
Cc1ccc(SCC(=O)NCc2ccccc2C)cc1	8	-5	-16	2	7	4217	2.8
O=C(NC(Cc1ccccc1)C(=O)OCc1ccccc1)c1nc[nH]c1C(=O)N1CCc2ccccc2C1 (configuration not stated)	12	8	nt	-11	nt	nt	2.7
COC(=O)c1cccc(NC(=O)c2ccc3c(c2)C(=O)N(Cc2cccnc2)C3=O)c1	3	7	-5	4	-8	5366	-1.5
COc1ccc(C2(c3ccc(OC)cc3)NC(=O)N(CC(=O)N(C)C3CCC(C)CC3)C2=O)cc1 (configuration not stated)	-1	-6	-4	2	nt	4265	1.9
Cn1c(SCC(=O)Nc2ccccc2)nc2c([nH]c3ccccc32)c1=O	7	4	-4	3	-2	6372	2.6
O=C(CN1C(=O)c2ccccc2C1=O)Nc1sc2c(c1C(=O)NCc1ccco1)CCCC2	5	6	-14	-3	5	4418	-0.8
Cc1ccc(C(=O)OCC(=O)Nc2cccc(S(=O)(=O)NC3=NCCCCC3)c2)c(C)c1	-5	5	-14	3	8	4170	-7.0
CC12CN3CC(C)(CN(C1)C3c1cccnc1)C2=O (configuration not stated)	nt	nt	-2	3	-8	4834	3.7
COc1ccccc1CNS(=O)(=O)c1cc(C(=O)NCc2ccccn2)c(Cl)cc1Cl	-2	-8	-25	3	nt	nt	-1.2
O=C(CSc1nnc(CNC(=O)c2ccco2)o1)c1ccc(Cl)cc1	16	12	-11	3	31	nt	0.4
O=C(Nc1nnc(-c2ccc(Cl)s2)o1)C1CCCCC1	7	8	-28	10	-2	4546	3.1
CCCCC1CC1C(NC(=O)c1ccco1)c1ccc(Cl)cc1 (configuration not stated)	20	6	nt	9	nt	nt	2.2
c1ccc(Cn2cc(-c3ccccc3)cn2)cc1	nt	nt	-33	0	nt	4160	3.8
CN(CCc1ccccn1)C(=O)CCC1CCCN(C(=O)c2cscn2)C1 (configuration not stated)	16	3	-14	14	-15	2472	2.1
COc1ccc(C(CNC(=O)c2ccc(OCC3CCCO3)cc2)N2CCOCC2)cc1 (configuration not stated)	nt	nt	-8	4	4	nt	-2.2
CCOc1ccccc1NC(=O)N1CCC(C(=O)c2ccc(F)cc2)CC1	-5	16	-11	2	0	3969	3.3
O=C(/C=C/c1ccccc1)Nc1cccnc1Cl	9	9	-59	7	-6	4028	0.3
CC(=O)c1ccc(NC(=O)Oc2ccccc2)cc1	nt	nt	-16	-4	-4	2681	-0.7
CCc1ccccc1NC(=O)CCc1c(C)nc(SC)nc1C	0	1	-5	-2	-4	3645	1.3
